PrP 5UTR inh: suppresses PrP 5' UTR mRNA reporter expression; inhibition, % (test concentration not listed); cell-based PrP 5' UTR mRNA reporter, plate reader; 340,000 tested, 0.35% active;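 active means every replicate at 50% or more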;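 further: 0 = median of the neutral control wells; tested in H4 reporter cells; numbers are from one replicate; inactives centre near -14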
Sa RN4220 lethal: S. aureus RN4220 growth inhibition; OD600, 16 h; inhibition, % (test concentration not listed); 330,000 tested, 0.33% active;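 active means z-score of -3 or lower and OD600 up to 0.18 on both plates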;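 further: plate controls were untreated cells for no effect and reference antibiotic for full effect; stock transfer was 100 nL into about 80 µL; one replicate is shown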
ugtP null kill: kills S. aureus RN4220 lacking UgtP | 330,000 tested, 0.54% active | S. aureus RN4220 ugtP deletion, OD600 growth, 16 h; some inactives read as strong as hits | growth inhibition, % (no concentration beside the values) | AID 1259309;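 active means z-score under -3 and OD600 up to 0.15 on both plates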;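 further: plate controls were untreated wells for no effect and antibiotic for full effect; wells of about 80 µL received 100 nL stock; the first replicate is given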
BJeLR viability: BJeLR cell viability loss. BJeLR (HRASV12) viability, CellTiter-Glo ATP luminescence, 48 h; reference of the scale not given here. inhibition, % (test concentration not listed). 300,000 tested, 0.17% active;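 active means replicate mean above 50%; inconclusive means above 50% but judged a plate artefact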;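 further: 50 nL library stock added to about 25 µL; numbers are from one replicate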
Bead autofluor: compound fluorescence in toxin protease inhibitor counterscreen | compound autofluorescence counterscreen, microsphere flow cytometry; active compounds read high | 360,000 tested, 3.1% active | fluorescence intensity (no concentration beside the values) | AID 624483;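 active means at least 3 SD above the mean of all compounds, about 16000 in these data; inconclusive means too few beads counted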;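 further: 100 nL of 1 mM stock went into each well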
Mtb hypoxia rep: reduces hypoxia-regulated biosensor signal in M. tuberculosis; M. tuberculosis hypoxia-regulated fluorescent reporter, fluorescence; 300,000 tested, 0.1% active; fluorescence inhibition, % (test concentration not listed);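 active means 35 to 45% if threefold the growth effect, above 45% if 1.5-fold the growth effect; inactive means the rest, general growth blockers included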;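 further: wells of about 50 µL received 100 nL stock; 0% = vehicle wells and 100% = reference inhibitor wells; whole bacteria with a GFP reporter of the hypoxia response; strong numbers were not always called active; many hits fall short of the cut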
Mtb hypoxia rep growth: further read-out of Mtb hypoxia rep, marked with its call; growth inhibition, %; measured here: M. tuberculosis growth (absorbance);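 0% = vehicle and 100% = reference antibiotic; read after six days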
Starred values were filed as active, the others as inactive; ? = inconclusive; / = not tested or not shown.

SMILES	PrP 5UTR inh	Sa RN4220 lethal	ugtP null kill	BJeLR viability	Bead autofluor	Mtb hypoxia rep	Mtb hypoxia rep growth
Cc1ccc(CCN2CC(C(=O)NC(C)C)CC2=O)cc1 (stereo not drawn)	-8	3.4	1	-2	3936	-4	-7
O=C1NC(=O)C(CCc2ccncc2)(Cc2ccc3c(c2)OCO3)C(=O)N1CCc1ccccc1 (stereo not drawn)	-13	5.8	-2	3	?	10	6
NC(=O)[C@H](Cc1cc2ccccc2s1)NC(=O)[C@@H]1CC2(CC(c3cccc(NC(=O)[C@@H]4CCC(=O)N4)c3)=NO2)CN1C(=O)/C=C/c1c(F)cccc1Cl (stereo partly drawn)	-23	/	/	-5	3582	/	/
O=C1NC(NS(=O)(=O)c2ccccc2)(C(F)(F)F)C(=O)N1Cc1cccnc1 (stereo not drawn)	-7	0.2	5	7	14749	4	3
Cc1ccc(S(=O)(=O)N2CCN(C(=O)COC(=O)CSc3cc(C)ccc3C)CC2)c(C)c1	-21	5.6	1	/	2988	3	-6
CC(=O)c1c(C)[nH]c(C(=O)NCc2ccc(F)cc2)c1C	-5	8.4	-3	-4	3663	4	-2
O=C(O)c1ccc2c(=O)n3c(nc2c1)/C(=C/c1ccccc1OC(F)F)CC3	-2	9.3	-6	-10	3273	9	4
Cc1ccc(C(=O)N2CCN(CCNC(=O)C(=O)Nc3ccc(Cl)cc3)CC2)cc1	-6	8.4	16	-10	6110	-3	-2
CCCN=Cc1ccc(O)cc1	-14	3.0	5	10	4522	-3	13
CCCCOc1ccc(CC2CCC(=O)NC2=O)cc1 (stereo not drawn)	-29	6.1	5	7	4171	10	2
O=C(CSc1ncnc2c1nnn2-c1ccc(F)cc1)NCC1CCCO1 (stereo not drawn)	-21	-18	-6	8	2767	6	2
COc1ccccc1NC(=O)CSc1ccc2nnc(-c3ccccn3)n2n1	10	4.5	12	7	5144	8	4
CCOC(=O)C1=C(C)N(C[C@@H]2CC[C@@H](Cc3ccc(-c4ccccc4)cc3)O2)C(=O)NC1c1ccc(SCc2ccco2)c([N+](=O)[O-])c1 (stereo partly drawn)	16	6.7	-2	/	3944	-4	-12
Cc1ccc(Cl)c(OCC(=O)OCC(=O)c2ccc[nH]2)c1	-19	3.4	-1	/	3884	5	5
CN(C)C(=O)CCN1CCOCC1	13	1.3	0	7	2556	/	/
COc1ccc(-c2c(C#Cc3ccsc3)c3ccccc3n2C)cc1	-53	/	/	0	3962	/	/
O=C(COC(=O)c1cccnc1Cl)Nc1ccc2c(c1)OCCO2	-5	10	2	0	4307	11	5
COc1ccc(NC(=O)c2ccc3c(c2)C(=O)N(CC2CCCO2)C3=O)cc1 (stereo not drawn)	-24	4.0	11	0	3857	0	-2
Cc1ccc(S(=O)(=O)Nc2nc(C)c(NC(=O)Nc3ccc(Cl)cc3Cl)s2)cc1	-18	-2.2	6	-3	3312	/	/
COc1cc(-c2nc3sc(C)c(C)c3c(=O)o2)cc(OC)c1OC	-9	5.2	1	-3	3718	-2	-7
O=C(CCNc1ccc(F)cc1)c1cccc([N+](=O)[O-])c1	-13	2.5	22	-4	20472*	10	1
Cc1ccc(S(=O)(=O)N2CCN(C(=O)c3cc(-c4cccs4)nn3-c3ccccc3)CC2)cc1	-32	/	/	-7	?	/	/
Fc1ccc(CN2CCN(c3ccc(Cl)cc3)CC2)cc1	-26	12	31	-7	2636	18	0
COc1ccc(NS(=O)(=O)c2cnc[nH]2)cc1	-19	9.2	20	2	4386	-4	2
COCCN1CC(CNC(=O)c2cc(COc3ccc(C)c(C)c3)on2)CC1=O (stereo not drawn)	-35	-5.0	-3	8	5398	-3	-2

Reprinted from the part before: five entries, followed by the next part.
SMILES	PrP 5UTR inh	Sa RN4220 lethal	ugtP null kill	BJeLR viability	Bead autofluor	Mtb hypoxia rep	Mtb hypoxia rep growth
O=C(CCNc1ccc(F)cc1)c1cccc([N+](=O)[O-])c1	-13	2.5	22	-4	20472*	10	1
Cc1ccc(S(=O)(=O)N2CCN(C(=O)c3cc(-c4cccs4)nn3-c3ccccc3)CC2)cc1	-32	/	/	-7	?	/	/
Fc1ccc(CN2CCN(c3ccc(Cl)cc3)CC2)cc1	-26	12	31	-7	2636	18	0
COc1ccc(NS(=O)(=O)c2cnc[nH]2)cc1	-19	9.2	20	2	4386	-4	2
COCCN1CC(CNC(=O)c2cc(COc3ccc(C)c(C)c3)on2)CC1=O (stereo not drawn)	-35	-5.0	-3	8	5398	-3	-2
CCCCc1c(C)nc2ccc(Br)cc2c1SC(N)N	-6	4.4	2	/	3468	8	3
CCNc1c2c3c(cccc3n(C)c1=O)C(=O)c1ccccc1-2	/	-0.2	-9	0	/	-3	11
CCCc1cc(N2CCCC(C(=O)NCc3ccc4c(c3)OCO4)C2)n2ncnc2n1 (stereo not drawn)	-9	0.7	-1	1	15232	7	7
CCOCC(=O)Nc1nc2ccc(S(C)(=O)=O)cc2s1	-30	-0.6	-7	-4	5146	/	/
COc1ccccc1CNC(=O)CSc1nc(N)c(C#N)c(-c2cccs2)c1C#N	-27	20	10	-5	4071	7	8
CCN(CC)C(=O)C(=O)NN=Cc1ccc(Cl)cc1Cl	/	3.4	4	/	/	4	8
COC(=O)c1ccc(CSc2n[nH]c(-c3ccccc3)n2)o1	-11	1.2	2	1	2085	-7	2
CC(=O)N1CCc2cc(S(=O)(=O)Nc3ccc(C)cc3C)ccc21	-14	4.3	-1	-16	3018	1	-10
CCN(CC)S(=O)(=O)c1ccc(F)c(C(=O)NCCC(C)C)c1	-29	2.0	3	5	17171*	10	11
CCc1cc(C(c2ccncc2)N2CCN(C)CC2)c(NC(=O)c2ccccc2)s1 (stereo not drawn)	9	2.4	-4	-5	2467	-2	0
O=[N+]([O-])c1cccc(/C=N/Nc2cc(N3CCOCC3)ncn2)c1	-9	/	/	3	3573	/	/
COC(=O)CNC(=O)c1cc(OC)cc(OC)c1	-12	2.0	4	-5	4248	-1	8
CCN(CC)S(=O)(=O)c1ccc(N2CCOCC2)c(NC(=O)CC2OC(=O)c3ccccc32)c1 (stereo not drawn)	-9	4.8	2	-1	5854	5	11
O=C(O)c1ccc(S(=O)(=O)N2CCCCCC2)cc1	-6	1.4	4	-5	3816	2	5
Cc1onc(-c2ccccc2Cl)c1C(=O)N1CCOC12CCN(c1cccc(F)n1)CC2	-67	3.7	-4	-13	4254	11	9
Cc1ccccc1C=Nn1c(-c2ccccn2)n[nH]c1=S	/	4.0	-2	/	/	16	-1
CCC(C)(C)NC(=O)C(c1ccc(F)cc1)N(CCOC)C(=O)CCC(=O)Nc1nccs1 (stereo not drawn)	-17	2.3	5	-6	3502	-2	5
Cc1ccnc(NC2(C(F)(F)F)N=C(c3ccccc3)NC2=O)c1 (stereo not drawn)	-44	8.0	-3	-3	19679*	-2	4
CSc1nc2n(n1)C(c1cccs1)C1=C(CCCC1=O)N2 (stereo not drawn)	-23	12	7	-26	4439	-5	0
CC(=NCC1CCCO1)c1c(O)[nH]c(=O)[nH]c1=O (stereo not drawn)	-10	-6.4	3	1	2531	22	4
CN(C(=O)c1cccc(Nc2ccc(-c3ccc4c(c3)OCCO4)nn2)c1)C1CCCCC1	-38	88*	99*	/	3133	11	5
CNC(=O)N(O)C1N(/N=C/c2c(F)cccc2Cl)C(=S)SC1(C)C (stereo not drawn)	-6	/	/	-16	3242	/	/
COc1ccc(C(=O)OC(C)C(=O)NCC2CCCCC2)cc1S(=O)(=O)N1CCOCC1 (stereo not drawn)	-67	5.5	3	/	4076	9	4
O=C(N/N=C/c1cc2c(cc1Br)OCO2)c1cc2ccccc2o1	-19	/	/	-2	5015	/	/
Cc1nn(-c2ccccc2)c(C)c1C=NNC(=O)CSc1nnc(SCc2ccccc2Cl)s1	/	2.3	-14	/	/	12	4
More structures:
SMILES	PrP 5UTR inh	Sa RN4220 lethal	ugtP null kill	BJeLR viability	Bead autofluor	Mtb hypoxia rep	Mtb hypoxia rep growth
CCOC(=O)C1CCCN(C(=O)CSc2ccccc2)C1 (stereo not drawn)	-9	5.6	3	-8	2454	7	7
Cc1oc(=O)c(NC(=O)c2cccc(Cl)c2)cc1C(=O)c1ccccc1	-7	-0.2	-8	-2	21979*	6	8
O=C(CSc1ncnc2ccccc12)N1CCCC1	-25	1.1	7	1	4194	20	21
CCCc1nnc(NC(=O)c2c(O)c3cccc4c3n(c2=O)CCC4)s1	/	88*	96*	-20	/	3	17
O=C(NCc1ccco1)C(c1ccncc1)N(C(=O)Cn1nnc2ccccc21)c1ccccc1 (stereo not drawn)	-16	2.5	5	2	3509	-2	4
CCCCc1ccc(NS(=O)(=O)c2cccc(C(=O)N3CCNC(=O)C3)c2)cc1	-25	3.1	7	/	/	-3	-3
O=C(Nc1ccc(F)cc1)C(Sc1nc2ccccc2[nH]1)c1ccccc1 (stereo not drawn)	-26	-3.6	-33	2	2022	-10	-10
Cc1ccc(NC(=O)CSc2nnc(-c3cnccn3)n2Cc2ccco2)cc1C	-17	6.8	4	-3	3350	5	6
CCCCCc1c(C)nc(NCc2ccccc2)[nH]c1=O	-7	-4.8	-7	4	20180*	2	0
Cc1cc(OCC(=O)NC(Cc2ccc(Cl)cc2)C(=O)O)c2c(C)c(C)c(=O)oc2c1 (stereo not drawn)	-13	1.3	6	-9	5181	/	/
Cn1ccnc1Sc1nc2c(c(=O)n(C)c(=O)n2C)n1C	-28	7.6	-2	-4	10121	9	5
CCC(=O)N1CCc2cc(S(=O)(=O)NC(C(=O)NC(C)c3ccccc3)C(C)C)ccc21 (stereo not drawn)	-21	5.9	5	-6	4260	8	6
O=C(CCN1C(=O)c2ccccc2C1=O)Nc1nc2ccccc2s1	-17	5.2	6	-3	2561	8	5
Cc1nnc(SCc2ccc(C(=O)O)cc2)s1	-2	4.9	11	-11	3413	-1	0
Cc1ccc(-n2nnnc2SCc2nnc(-c3ccccc3Br)o2)cc1	-72	7.9	-3	-8	7037	-4	-1
O=C(Cc1csc(-c2ccccc2)n1)NCc1ccc(F)cc1	-12	-2.3	-2	4	2695	12	5
CN1CC(=O)N2C(Cc3c([nH]c4ccccc34)C2c2ccc3c(c2)OCO3)C1=O (stereo not drawn)	/	2.3	-9	/	/	4	-2
O=C(NC1CCCCC1)C(c1ccc(F)cc1)N(C(=O)c1csnn1)C1CC1 (stereo not drawn)	2	-3.5	-3	1	4486	-4	-5
Cc1ccc(/C=N/NC(=O)CNC(=O)COc2ccc(Cl)cc2)o1	-49	/	/	0	4117	/	/
Cc1c(Cl)c([N+](=O)[O-])nn1CC(=O)NC1CCCCC1	-5	11	6	-6	2302	7	4
COc1cc(/C=N/c2oc(C)c(C)c2C#N)cc(Br)c1O	-15	/	/	-3	4389	/	/
Cc1cc(C)cc(NS(=O)(=O)c2cc3[nH]c(=O)c(=O)[nH]c3cc2C)c1	-16	0.9	6	-14	5672	/	/
Cc1ccc(C(=O)c2oc3ccc(Cl)cc3c2NC(=O)CN2CCN(C)CC2)cc1	-20	0.9	64	1	5795	/	/
CC(=O)Nc1ccc(NC(=O)Nc2cccc(C)c2C)cc1	6	4.8	3	5	2255	-2	-1
CCOC(=O)c1cc(-c2ccccc2)sc1N	-68	-0.1	1	2	3108	3	14
Next section.
SMILES	PrP 5UTR inh	Sa RN4220 lethal	ugtP null kill	BJeLR viability	Bead autofluor	Mtb hypoxia rep	Mtb hypoxia rep growth
CCCN1C/C(=C/c2ccc3c(c2)OCO3)C(=O)/C(=C/c2ccc3c(c2)OCO3)C1	-19	1.6	3	53*	2258	-3	8
Cc1cccc(Oc2nc(-c3cccc([N+](=O)[O-])c3)nc3ccccc23)c1C	-14	-5.8	-1	7	4192	-2	2
NC(=O)CC(NC(=O)Cc1cccc2ccccc12)c1ccc(N2CCCCCCC2)c([N+](=O)[O-])c1 (stereo not drawn)	-21	-4.4	13	-2	3801	4	-2
O=C(NNC(=O)c1ccc2ccccc2c1)c1cccc(F)c1	-33	-0.6	-2	/	3775	10	9
CC1(C)C2CCC1(CS(=O)(=O)NCCc1c[nH]c3ccccc13)C(=O)C2 (stereo not drawn)	-10	4.5	-3	8	3443	-5	-2
O=C(CSc1nc2ccccc2n1S(=O)(=O)c1ccccc1)N1CCCC1	-18	6.8	-4	16	7540	10	6
Cc1ccc(O)c(NC(=O)C2CCCN2C(=O)OCc2ccccc2)c1 (stereo not drawn)	-15	6.2	3	-6	5731	8	2
Fc1ccccc1CNCc1ccc2c(c1)OCO2	-27	5.5	7	-2	3350	3	2
Cc1ccnc(NS(=O)(=O)c2cc(-c3cc(C)no3)ccc2C(C)C)c1	6	5.7	13	11	4438	6	2

The order is random; any-hit rate near 4%.
